ClpP mod = qHTS Assay for Activators of ClpP. ATP-dependent Clp protease proteolytic subunit (Bacillus subtilis (strain 168)), P80244. purified B. subtilis ClpP, FRET peptide cleavage, 20 min. Potency, µM (doses to about 57.5 µM), for inactives: at the highest dose activity change, negative = active. 1.9% of 340,000 active. AID 651965, 2013; active = well fitted falling curve with a large enough effect; inconclusive = small, poorly fitted or top-dose-only effect; inactive = no such curve, though single readings can be large or run the other way; note: potency is the fitted concentration of half-maximal effect; the source files actives as falling curves though it sought activators and does not explain the sign; nearly all actives have a fitted effect of over 65% in size; many hits overshoot -100%
Target sequence (P80244 whole entry, looked up): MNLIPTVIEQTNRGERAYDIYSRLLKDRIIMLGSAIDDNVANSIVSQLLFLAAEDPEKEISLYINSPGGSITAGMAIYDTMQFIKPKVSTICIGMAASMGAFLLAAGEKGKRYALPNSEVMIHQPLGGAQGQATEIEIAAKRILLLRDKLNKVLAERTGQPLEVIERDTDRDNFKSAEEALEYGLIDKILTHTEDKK
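Buffer: 100 mM Tris/HCl pH8, 100 mM KCl, 0.05% low protease BSA, 2.5% glycerol, 0.01% Tween-20. ClpP 10 microg/mL final; 20 min RT; delta FRET normalized to ADEP and DMSO controls.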
gsp agonist = activates gsp, the McCune-Albright syndrome mutation. 0.13% of 340,000 active. gsp mutant cells, cAMP HTRF, 30 min; control for the full effect not named in the record. Potency, µM (doses to about 76.9 µM), inactives show at the top dose activation (cAMP increase), hits mostly activators; active = well fitted activation curve with a large enough effect; inconclusive = small, poorly fitted or top-dose-only effect, or another doubt; inactive = no such curve, though single readings can be large or run the other way; cell line not stated here;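 note: phosphodiesterase inhibitor Ro 20-1724 added with compounds to block cAMP breakdown; potency is the fitted concentration of half-maximal effect; nearly all actives have a fitted effect of over 60% in size; about a fifth of the inactives were tested at one dose only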
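Cells in DMEM/10% FBS with G418 were pretreated with compounds in DMSO plus […] (300 uM stock) for 30 min at 37C. cAMP was measured by HTRF (cAMP-d2 plus anti-cAMP antibody-K) after 30 min at room temperature.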
TRPML1 inh = human mucolipin-1 channel inhibition. TRPML1-inducible cells, Ca2+ dye fluorescence, FDSS; stronger effect = lower value; inhibition of EC80 agonist-evoked calcium signal. activity change, negative = inhibition, % (concentration not given with the values). 0.02% of 390,000 active. AID 624415; in the data active means activity change below about -50%; inconclusive means about -30% to -50%; inactive means above about -30%;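 note: stimulus is agonist 54-4 at its EC80 concentration; % is set by controls: 0 for no effect and ±100 for the full control effect; compound concentration not given in the record; the text of the record puts the active cut at -80%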
Target sequence (Q9GZU1 whole entry, looked up): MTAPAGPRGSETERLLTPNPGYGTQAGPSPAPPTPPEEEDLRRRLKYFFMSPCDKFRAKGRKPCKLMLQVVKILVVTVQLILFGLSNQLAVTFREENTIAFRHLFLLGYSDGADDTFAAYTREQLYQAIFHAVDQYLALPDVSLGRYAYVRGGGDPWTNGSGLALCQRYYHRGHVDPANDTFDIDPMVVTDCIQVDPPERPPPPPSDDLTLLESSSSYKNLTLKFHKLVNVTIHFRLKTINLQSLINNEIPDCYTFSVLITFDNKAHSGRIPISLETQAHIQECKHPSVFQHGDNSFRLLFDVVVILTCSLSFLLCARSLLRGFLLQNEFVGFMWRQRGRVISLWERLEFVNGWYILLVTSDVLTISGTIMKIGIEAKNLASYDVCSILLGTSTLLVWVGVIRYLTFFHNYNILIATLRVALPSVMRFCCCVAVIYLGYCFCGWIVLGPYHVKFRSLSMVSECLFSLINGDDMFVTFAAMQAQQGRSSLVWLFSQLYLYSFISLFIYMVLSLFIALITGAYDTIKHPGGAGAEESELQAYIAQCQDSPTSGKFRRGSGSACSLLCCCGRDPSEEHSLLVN
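Calcium fluorescence in TRPML1-DL cells induced overnight with Tet: a 110 s read after compound pin addition, then a 110 s antagonist read after challenge with 54-4 at 4 uM final (EC80).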
gsp antag = antagonizes gsp, the McCune-Albright syndrome mutation; gsp-mutant cells, cAMP HTRF, 30 min; control for the full effect not named in the record; Potency, µM (series often up to 76.9 µM), inactives show top-dose activity change, negative = inhibition, most hits filed as inhibitors; 0.4% of 340,000 active; AID 624288; active = falling curve of any shape with a large fitted effect; inconclusive = falling curve, mostly with a smaller effect; inactive = flat or rising curve; cell line not stated here;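 note: intracellular cAMP measured with PDE inhibitor Ro 20-1724 present during compound exposure; potency is the fitted concentration of half-maximal effect; % is set by controls: 0 for no effect and ±100 for the full control effect; nearly all actives have a fitted effect of over 65% in size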
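G418-selected cells were plated in DMEM/10% FBS for 16-24 h at 37C, then treated with compounds plus the PDE inhibitor […] (300 uM solution added) for 30 min at 37C. Intracellular cAMP was measured by HTRF after 30 min lysis at room temperature.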
TRPML1 ag = activates the human TRPML1 channel | Q9GZU1 | TRPML1-expressing cells, Ca2+ dye fluorescence, FDSS; host cell line not named in the record; reference of the full effect not given here | activation, % (no concentration beside the values) | 0.12% of 410,000 active | AID 624414; in the data active = activation above about 50%; inconclusive = about 30% to 50%; inactive = below about 30%; note: 0% is about no effect; the text of the record puts the active cut at 80%
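Kinetic FDSS Ca2+ read in Tet-induced TRPML1-DL cells (ABD Ca8 dye plus quencher, 45-90 min RT loading): baseline, then compound, then 110 s agonist window; EC80 agonist 54-4 at 4uM final added afterwards for a 110 s antagonist window.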
Menin MLL FP FL = displaces fluorescein MLL peptide from human menin. Fluorescence polarization, fluorescein-MLL peptide displacement from menin. 290,000 tested, under 10 active. AID 1766. FP activity change, % at 61.4 µM; inconclusive = falling polarisation curve, or a change in total fluorescence; inactive = total fluorescence flat and polarisation flat or rising; no compound was filed as active; the % refers to the polarisation; negative = inhibition;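 note: % of control where 0% means no effect; inhibitors lower the polarisation; unlabelled MLL peptide was the positive control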
Active calls of the source: *; u = inconclusive; x = not tested or not shown; [ ] = another dose, or the depositor's remark.

SMILES	TRPML1 ag	gsp antag	ClpP mod	gsp agonist	Menin MLL FP FL	TRPML1 inh
CCc1ccccc1NC(=O)c1cc(S(=O)(=O)N2CCc3ccccc32)cn1C	-0.4	5%	0.9%	-39%[inhibitor]	3.2	4
COCCn1cnnc1SCC(=O)Nc1cc(OC)c([N+](=O)[O-])cc1C	0.0	-18%	-0.2%	27%	-0.1	10
Cc1oc(-c2ccc(F)cc2F)nc1CN1CCN(C(=O)c2ccco2)CC1	-0.9	x	-0.5%	-7%	x	10
COc1cc2c(cc1OC)C(C(=O)N1CCN(c3ccccc3)CC1)C(c1cccs1)N(C)C2=O (configuration not stated)	0.6	-4%	-2.3%	-2%	-0.7	-7
CCOC(=O)/C=C/C(=O)Nc1ccc(S(=O)(=O)N2CCc3ccccc32)cc1	0.6	0%	0.3%	0%	-0.4	-1
CCc1ccc(NC(=O)Cn2c(=O)n(CCCC(=O)NCc3ccco3)c(=O)c3ccccc32)cc1	0.1	4%	-0.7%	8%	1.4	-2
COc1ccc(NC(=O)CSc2ncc(-c3ccc(F)cc3)n2Cc2ccco2)cc1	0.0	-28%	-1.0%	-12%	0.9	10
CCn1c(CN2CCCCC2)nc2cc(NC(=O)COc3ccc([N+](=O)[O-])cc3)ccc21	-0.4	x	-5.7%	x	x	-5
CCN(CC)CCNC(=O)c1ccccn1	0.1	14%	0.9%	-17%	1.1	5
CCS(=O)(=O)c1oc(-c2ccc(F)cc2)nc1S(=O)(=O)c1ccc(Br)cc1	1.8	x	-5.5%	x	x	31
COc1ccc(S(=O)(=O)N2CCOC2CNC(=O)C(=O)NCc2ccc(F)cc2)cc1 (configuration not stated)	0.4	9%	3.4%	-24%	-3.6	4
COc1ccc(OC)c(CN2CCN(Cc3cc(OC)c(OC)c(OC)c3)CC2)c1	-0.5	-9%	-0.8%	-8%	-7.1	7
COCCC(=O)N1CCC(Oc2ccc(C(=O)N(C)C3CCCCC3)cc2)CC1	-0.3	0%	0.1%	8%	-3.6	-18
CCN(c1ccccc1)S(=O)(=O)c1ccc(C(=O)N2CCN(c3ccccc3)CC2)cc1	0.1	-17%	0.0%	19%[15.4 µM]	x	-2
CC1Cn2c(C(=O)NCc3cccc(Br)c3)cc3cccc(c32)S1 (configuration not stated)	0.7	x	32µM*	x	x	31
CNC(=S)N/N=C(\C)c1ccc(N2CCOCC2)cc1	1.0	-10%	u	-68%[inhibitor]	8.9	-13
CC1(C)CC(=O)C=C(/C=C/c2ccccc2)C1	-0.2	5%	2.4%	30%	x	10
COc1ccc(C2CC(c3ccc4ccccc4c3)=NN2C(=O)CSc2ncccn2)cc1 (configuration not stated)	-0.1	3%	22µM*	-1%[15.4 µM]	3.6	5
Cc1noc(NS(=O)(=O)c2ccc(NC(=O)CC(C)C)cc2)c1C	0.6	8%	x	u	-1.0	5
Cc1cc(/C=N/n2cnnc2)c(O)c([N+](=O)[O-])c1	0.2	1%	1.4%	-36%[inhibitor]	x	-7
CN(C)CCCNC(=S)/N=c1\sccn1Cc1ccccc1Cl	-0.3	11%	x	-29%[15.4 µM]	2.6	-2
CC(=O)N(CCCN(C)C)Cc1ccccn1	-0.6	3%	x	22%[15.4 µM]	-0.4	-3
COC(=O)c1ccc(Cn2ccc(=O)[nH]c2=O)cc1	0.2	-2%	14µM*	3%[15.4 µM]	x	-8
COc1cccc(-c2nn(-c3ccc(C)cc3)cc2C(=O)NCC2CCCO2)c1 (configuration not stated)	-0.5	-2%	-26%	-43%	x	-4
O=C1N[C@H](Cc2c[nH]c3ccccc23)COC(=O)[C@H](Cc2ccc(F)cc2)C/C=C\C[C@H]1CC(=O)N(CCO)Cc1ccccc1	0.2	u	-0.8%	u	x	-6
CCOc1ccc(CC(=O)Nc2c(C(=O)c3ccc(F)cc3)oc3ccc(Cl)cc23)cc1OCC	-0.7	x	-0.5%	x	x	-8
O=C(NCc1ccco1)c1cccc(NC(=O)c2ccccc2)c1	0.0	-16%	-2.4%	12%	5.2	24
CC(NC(=O)c1cc(-c2cccnc2)nc2ccc(Br)cc12)C1CCCO1 (configuration not stated)	0.2	-3%	-1.0%	16%	x	-8
COCC(=O)Nc1nnc(Cc2ccc(OC)cc2)s1	1.6	8%	-2.9%	-21%	5.7	2
Cc1ccc(S(=O)(=O)N(C)C)cc1NC(=O)COC(=O)CNC(=O)c1cccs1	0.5	0%	-2.2%	-3%[15.4 µM]	x	11

Filtered by structure, the entries above containing a Cl atom
SMILES	TRPML1 ag	gsp antag	ClpP mod	gsp agonist	Menin MLL FP FL	TRPML1 inh
CN(C)CCCNC(=S)/N=c1\sccn1Cc1ccccc1Cl	-0.3	11%	x	-29%[15.4 µM]	2.6	-2
CCOc1ccc(CC(=O)Nc2c(C(=O)c3ccc(F)cc3)oc3ccc(Cl)cc23)cc1OCC	-0.7	x	-0.5%	x	x	-8

Next section.
SMILES	TRPML1 ag	gsp antag	ClpP mod	gsp agonist	Menin MLL FP FL	TRPML1 inh
COc1cc2ncc(S(=O)(=O)c3ccccc3)c(N3CCCC(C)C3)c2cc1OC (configuration not stated)	1.9	-16%	-4.1%	-20%	-1.5	30
Cn1c(CCc2ccccc2)nnc1SCC(N)=O	0.5	7%	-4.0%	1%[15.4 µM]	-0.7	6
CCN(CC)C(=O)N1c2ccccc2CC(N(CC)CC)c2ccccc21 (configuration not stated)	0.7	-7%	-2.3%	0%	-1.5	42
O=[N+]([O-])c1ccc(C2=NN(CCO)C(=Nc3ccc(OC(F)(F)F)cc3)SC2)cc1	1.4	-5%	x	3%	1.3	63
O=C1CCC(=O)N1CCc1c[nH]c2ccccc12	0.0	2%	-2.0%	-9%	1.7	-19
CC(CC(=O)N(CCC1=CCCCC1)c1c(N)n(Cc2ccccc2)c(=O)[nH]c1=O)c1ccccc1 (configuration not stated)	0.7	-1%	3.2%	-42%[inhibitor]	x	-1
Cc1ccc(NS(=O)(=O)c2c(C)[nH]c(C)c2C(=O)N2CCCCC2)cc1F	0.2	9%	-1.4%	9%	x	-6
O=C(CN(C(=O)CCC(=O)Nc1nccs1)c1ccccc1F)NCC1CCCO1 (configuration not stated)	0.8	8%	-0.1%	-60%[inhibitor]	-2.8	0
Cc1nn(-c2ccccc2)c(NC(=O)c2ccccc2)c1Br	0.1	3%	x	-8%	-3.2	-19
O=C(CCCc1nc(-c2ccc(Cl)cc2)no1)N1CCOCC1	-0.7	u	0.2%	7%	-0.5	7
CC(=O)c1cccc(N2C(=NC(=O)C3CCCCC3)SC3CS(=O)(=O)CC32)c1 (configuration not stated)	1.3	-1%	-0.2%	-11%	-1.6	13
CC1(C)CN(c2ccccc2)N(C(=O)c2ccc(C#N)cc2)C1=O	-0.6	-10%	1.1%	-10%	0.1	-3
O=[N+]([O-])c1ccc(O)c(C=NN2CCCCC2)c1	-0.8	x	-0.3%	-18%	x	0
COCc1nc2sc(C)c(C)c2c(=O)[nH]1	-0.3	2%	-1.7%	10%	3.6	8
COc1ccc(-c2ccc3c(N)c(C(=O)Nc4ccc(C)cc4C)sc3n2)cc1OC	-0.3	x	-8.0%	x	x	6
C=CCn1c(SCC(=O)Nc2ccc(C(=O)O)cc2)nnc1-c1cccnc1	0.7	13%	0.6%	14%	0.5	-13
CC(C)(C)C(=O)OCCNc1nc(-c2ccccc2)nc2ccccc12	2.5	50µM*	3.3%	u	0.2	25
CCOc1ccc(CNC(=O)C2CCN(c3nnc(-n4c(C)ccc4C)s3)CC2)cc1	1.5	x	-0.4%	x	x	-10
CN(CC(=O)Nc1ccc(N2CCOCC2)cc1)C(=O)c1ccc(O)c(Cl)c1	-0.1	6%	1.2%	7%[15.4 µM]	x	11
O=C(NC1CCCC1)C(c1ccccn1)N(C(=O)c1csnn1)c1ccccc1Br (configuration not stated)	-0.2	-2%	2.0%	3%[15.4 µM]	x	-9
COc1cc(CN2CCN(Cc3cccc(OC)c3OC)CC2)cc(OC)c1	-1.4	-20%	-1.4%	5%[15.4 µM]	-15	5
CCOC(=O)c1nc2nc(-c3cccs3)cc(C(F)(F)F)n2n1	0.1	10%	u	u	-2.4	0
CC(=O)OCc1nc2ccccc2s1	-0.3	15%	-1.9%	28%	4.7	u
COc1ccc(-c2nn(-c3ccccc3)cc2C(=O)Nc2nccs2)cc1	0.4	-24%	-1.6%	5%	-1.1	-7
O=C(NCCc1ccccn1)c1nc(Cn2ccc([N+](=O)[O-])n2)no1	0.4	6%	x	6%[15.4 µM]	4.3	-7
COc1ccc(NC(=O)CC2C(=O)N(c3cccc(OC)c3)C(=O)N2CCC2=CCCCC2)cc1 (configuration not stated)	2.4	x	0.8%	x	x	-2
S=C(NC1CC1)N1CCN(c2ccc(Cl)cc2)CC1	-0.2	-3%	0.9%	-37%[inhibitor]	1.0	-2
O=C(COn1nnc2ccc(S(=O)(=O)N3CCOCC3)cc21)NCc1cccc(Cl)c1	-0.7	x	-0.5%	8%	x	-12
COc1ccc(NS(=O)(=O)c2cccc(C(=O)NNC(=O)CN3C(=O)NC(C)(C)C3=O)c2)cc1	0.8	14%	-29%	7%	x	5
COCCNC(=S)N=Nc1c(O)[nH]c2ccc([N+](=O)[O-])cc12	0.8	-3%	x	12%[15.4 µM]	12	11
COc1ccc(Cl)cc1NC(=O)COC(=O)c1ccc(Br)o1	2.8	-4%	x	7%	x	30
CC12CCC(C(=O)Nc3cccc(NC(=O)C45CCC(C)(C(=O)O4)C5(C)C)n3)(OC1=O)C2(C)C	2.5	-25%	-2.3%	0%	-0.5	5
O=c1c(C=NCc2cccnc2)c(C(F)(F)F)[nH]n1-c1nc2ccccc2s1	1.7	-14%	x	-3%	-1.0	1
COc1cccc(-c2c(C(=O)N/N=C/c3ccncc3)nnn2-c2nonc2N)c1	0.0	-7%	0.1%	-13%	0.1	6
O=C(O)c1cnc(N2CCOCC2)nc1	0.0	22%	x	-15%[15.4 µM]	-2.2	-12
Cc1cc(S(=O)(=O)NCC(c2ccc3c(c2)OCO3)N2CCOCC2)ccc1F (configuration not stated)	3.0	-6%	1.8%	16%	x	-12
Cc1ccc2c(c1)C(=O)c1c(C(=O)O)cccc1-2	-1.1	-22%	x	8%[15.4 µM]	1.7	-6
CC(=O)Nc1ccc(NC(=O)N(c2ccccc2)c2ccccc2)cc1	-0.4	2%	3.1%	13%	x	21

Three entries already listed, sorted by count of non-hydrogen atoms, low to high.
SMILES	TRPML1 ag	gsp antag	ClpP mod	gsp agonist	Menin MLL FP FL	TRPML1 inh
Cc1ccc2c(c1)C(=O)c1c(C(=O)O)cccc1-2	-1.1	-22%	x	8%[15.4 µM]	1.7	-6
COc1ccc(Cl)cc1NC(=O)COC(=O)c1ccc(Br)o1	2.8	-4%	x	7%	x	30
COc1cccc(-c2c(C(=O)N/N=C/c3ccncc3)nnn2-c2nonc2N)c1	0.0	-7%	0.1%	-13%	0.1	6
